High-throughput results deposited in PubChem BioAssay by several laboratories.
Rce1 inhib = yeast Ras-converting enzyme inhibition. yeast membranes, quenched prenylated peptide cleavage fluorescence. calls only. 0.27% of 290,000 active;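 active = fall in fluorescence gain of 50% or more versus controls, with final raw signal at or below 3038400; inconclusive = same 50% fall but final raw signal above 3038400; inactive = fall in fluorescence gain under 50%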;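 note: plate controls were neutral control wells for no effect and wells lacking membranes for full effect; tested at 10 µM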
Target sequence (Q03530 whole entry, looked up): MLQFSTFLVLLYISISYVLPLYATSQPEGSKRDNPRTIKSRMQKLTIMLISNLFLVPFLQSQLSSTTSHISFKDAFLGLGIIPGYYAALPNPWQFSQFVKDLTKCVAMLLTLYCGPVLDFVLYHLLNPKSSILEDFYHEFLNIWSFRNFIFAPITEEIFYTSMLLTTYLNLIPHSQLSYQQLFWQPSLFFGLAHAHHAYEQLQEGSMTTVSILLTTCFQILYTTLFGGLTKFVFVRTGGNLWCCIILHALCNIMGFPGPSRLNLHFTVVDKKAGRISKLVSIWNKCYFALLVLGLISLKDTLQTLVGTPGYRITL
Yeast UUG start = modulators of start codon recognition fidelity in yeast | activity score, % at 18.7 µM | 0.13% of 350,000 active | S. cerevisiae UUG-firefly luciferase reporter, luminescence/redox ratio;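 active = replicate mean at a twofold rise or more, about +100% in these data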;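 note: firefly luciferase made from a UUG start codon reports start codon fidelity; reporter light over untreated wells divided by growth signal over untreated wells; some hits fall short of that in this replicate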
HIV Env fusion = blocks HIV Env-driven cell-cell fusion; HeLa-JRFL Env/CEM21 cell fusion, luciferase; inhibition, % at 12.3 µM; AID 651610; 1.1% of 360,000 active;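 active = mean replicate inhibition score of at least 50 and every replicate individually at or above 50; inconclusive = only one of the two criteria met; inactive = mean below 50 and not all replicates reaching 50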;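 note: 0% = plate neutral controls and 100% = maraviroc near 300 nM; one replicate is shown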
eIF4H FP inh = inhibitors of RNA binding by human eIF4H; Q15056; eIF4H fluorescence polarization binding assay; inhibition, % at 35 µM; 0.94% of 290,000 active;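 active = 50% or more with normal probe brightness, or confirmed in later tests; inconclusive = above 50% with abnormal brightness, or retests that disagree; inactive = below 50% or failed in later tests; about a fifth of its hits are not listed in these tables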;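 note: calls also rest on retests at 20 µM and on dose response follow-up; 0% = protein and probe with vehicle and 100% = probe without protein; strong numbers were not always called active; many hits fall short of the cut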
CSC inhib = blocks cancer stem cells | cancer stem cell-like cells viability, luminescence | inhibition, % at 7.5 µM | 1.1% of 300,000 active;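 active = mean at 75% or more and at least half the replicates too; inconclusive = mean and replicates disagree; tested in HMLE shEcad cells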;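 note: 0% = median of negative and 100% = median of positive control wells; the first replicate is given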
MT1-MMP act inh = inhibitors of human MT1-MMP activation. P50281. AID 651647. HT1080 RFP-PRO-GFP cells, GFP/RFP ratio fluorescence, overnight; percent of plate control window, DMSO zero. 0.061% of 360,000 active. GFP/RFP ratio change, % at 20 µM;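 active = GFP/RFP ratio change of at least 30% with cell ATP level not reduced by more than half and red fluorescence within 50% of control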; note: strong numbers were not always called active
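Material – HT1080 RFP-PRO-GFP cells · Control set – DMSO wells and RFP-L50D-GFP cells · Incubation – overnight cell settling, then overnight compound exposure, 37 °C, 5% CO2 · Compound dosing – single-point 20 µM compound, 1% DMSO · Read-out – GFP/RFP fluorescence ratio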
PABP FP inh = blocks human PABP binding to poly(A) RNA; P11940; fluorescence polarization; inhibition, % at 35 µM; 1% of 290,000 active; AID 2014;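 active = 50% or more with normal probe brightness, or confirmed in later tests; inconclusive = above 50% with abnormal brightness, or retests that disagree; inactive = below 50% or failed in later tests; about a fifth of its hits are not listed in these tables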;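 note: calls also rest on retests at 20 µM and on dose response follow-up; controls were probe without protein and protein plus probe with vehicle; some compounds called inactive have numbers as strong as hits; many hits fall short of the cut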
Target sequence (P11940 whole entry, looked up): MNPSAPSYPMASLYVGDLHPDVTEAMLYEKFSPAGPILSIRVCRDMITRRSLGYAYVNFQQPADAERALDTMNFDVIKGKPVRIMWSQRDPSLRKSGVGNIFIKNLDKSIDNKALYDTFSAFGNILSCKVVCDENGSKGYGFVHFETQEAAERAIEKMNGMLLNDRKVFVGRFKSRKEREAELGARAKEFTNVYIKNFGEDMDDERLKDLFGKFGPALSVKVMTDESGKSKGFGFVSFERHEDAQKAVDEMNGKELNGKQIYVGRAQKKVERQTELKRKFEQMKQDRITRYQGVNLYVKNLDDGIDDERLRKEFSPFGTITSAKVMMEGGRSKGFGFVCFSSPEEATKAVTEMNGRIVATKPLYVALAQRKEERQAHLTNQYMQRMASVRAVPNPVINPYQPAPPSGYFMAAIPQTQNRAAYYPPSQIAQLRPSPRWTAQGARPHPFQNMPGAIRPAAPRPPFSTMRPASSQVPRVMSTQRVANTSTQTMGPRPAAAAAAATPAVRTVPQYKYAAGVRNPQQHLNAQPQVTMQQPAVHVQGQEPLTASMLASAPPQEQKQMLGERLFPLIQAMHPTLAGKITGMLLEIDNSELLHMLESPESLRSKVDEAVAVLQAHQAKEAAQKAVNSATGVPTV
eIF4H FP inh retest = second read-out of eIF4H FP inh, no call of its own (marks repeat the call); inhibition, %; compound at 20 µM; confirmation average;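 mean of two retest wells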
PABP FP inh retest = recorded beside PABP FP inh, whose call it bears; inhibition, %; compound at 20 µM; confirmation repeats;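 mean of two retest wells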
MT1-MMP act inh RFP = recorded beside MT1-MMP act inh, whose call it bears; RFP signal change, %; measured here: RFP expression control read;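 0 = vehicle wells; hits needed this value within 50% of zero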
Starred values were filed as active, the others as inactive; i = inactive; u = inconclusive; x = not tested or not shown. The list is partial (hit frequency here may not be typical).

SMILES | Rce1 inhib | Yeast UUG start | HIV Env fusion | eIF4H FP inh | CSC inhib | MT1-MMP act inh | MT1-MMP act inh RFP | PABP FP inh | others
O=C(NCC1(c2ccccc2)CCOCC1)c1ccc(Br)o1 | i | -5 | x | -2 | 3 | 2 | 2 | -4
CCCCn1c(N)c(N(CCC(C)C)C(=O)c2oc3ccc(OCC)cc3c2C)c(=O)[nH]c1=O | i | x | x | x | -9 | -11 | -11 | x
Cc1ccc(S(=O)(=O)NC(C(=O)O)c2ccccc2)cc1 (configuration not stated) | i | x | 13 | -4 | -2 | 5 | 1 | 2
CCC(C)N=Cc1c(NCc2ccco2)nc2c(C)cccn2c1=O (configuration not stated) | i | -14 | -110 | 1 | -1 | -14 | -12 | -4
CC(=O)Nc1ccc(S(=O)(=O)NCC(=O)OCC(=O)NC(=O)C2CCCCC2)cc1 | i | -16 | 10 | 2 | 36 | 6 | 9 | 1
Cc1ccc(S(=O)(=O)N2CCOCC2)cc1C(=O)N1CC(C)CC(C)C1 (configuration not stated) | x | -21 | 9 | x | -17 | 0 | 8 | x
Cc1ccc(NC(=O)CC2C(=O)N(Cc3ccccc3)C(=S)N2NC(=O)c2cccc(F)c2)c(C)c1 (configuration not stated) | i | -25 | -30 | -12 | 0 | -5 | -17 | 5
COc1cccc(N(C(=O)c2snc(C(N)=O)c2N)C(C(=O)NCC2CCCO2)c2ccc(C)o2)c1 (configuration not stated) | i | 14 | -7 | 4 | -9 | -2 | 3 | -10
COc1cccc(CNc2nc(NCC3CC3)nc3ccsc23)c1OC | x | -7 | 14 | x | x | 0 | -20 | x
Cc1cc(C)c(O)c(NC(=S)NC(=O)Cc2ccccc2)c1 | i | -16 | 4 | -7 | 6 | 3 | -1 | 11
O=C(COC(=O)c1ccco1)NCc1ccco1 | i | -14 | -39 | -10 | -20 | 7 | 4 | 6
COc1ccc(/C=C2\CCC(C3CCCC3)C2=O)c(OC)c1 (configuration not stated) | i | -12 | -18 | -10 | -2 | 2 | 1 | -8
CC(=O)NCCNc1ccc([N+](=O)[O-])cn1 | i | x | -4 | -7 | -9 | 0 | -2 | 15
O=C(CC(=O)Nc1cccc(F)c1)Nc1cccc(F)c1 | i | 49 | -12 | 3 | -6 | -1 | -6 | 20
Cc1c2c(nc3nc4ccccc4n13)CC(C)(C)CC2=O | x | -13 | -64 | -2 | -5 | 3 | 0 | 9

Molecules above with an aryl methoxy group:
SMILES | Rce1 inhib | Yeast UUG start | HIV Env fusion | eIF4H FP inh | CSC inhib | MT1-MMP act inh | MT1-MMP act inh RFP | PABP FP inh | others
COc1cccc(N(C(=O)c2snc(C(N)=O)c2N)C(C(=O)NCC2CCCO2)c2ccc(C)o2)c1 (configuration not stated) | i | 14 | -7 | 4 | -9 | -2 | 3 | -10
COc1cccc(CNc2nc(NCC3CC3)nc3ccsc23)c1OC | x | -7 | 14 | x | x | 0 | -20 | x
COc1ccc(/C=C2\CCC(C3CCCC3)C2=O)c(OC)c1 (configuration not stated) | i | -12 | -18 | -10 | -2 | 2 | 1 | -8

Other results:
SMILES | Rce1 inhib | Yeast UUG start | HIV Env fusion | eIF4H FP inh | CSC inhib | MT1-MMP act inh | MT1-MMP act inh RFP | PABP FP inh | others
COc1ccc(C#Cc2c(-c3ccsc3)oc3ccc(N4CCOCC4)cc23)cc1 | i | 0 | -38 | x | 47 | 8 | 2 | x
Cc1ccc(C(=O)NC(=S)Nc2c(C)ccc3nsnc23)cc1 | i | x | -12 | 2 | -2 | 0 | 0 | 3
CCCN(Cc1cc2ccc(C)cc2[nH]c1=O)S(=O)(=O)c1ccccc1 | i | x | x | -5 | 0 | 4 | -1 | 5
CC(NC(=O)Cn1cc(Br)c([N+](=O)[O-])n1)c1ccccc1 (configuration not stated) | i | 2 | -8 | -6 | 0 | 2 | 2 | -2
c1ccc(-c2cn3nc(-c4ccccc4)c(-c4ccccc4)nc3n2)cc1 | i | -13 | -21 | 18 | 10 | -19 | -1 | 22
COc1ccc2c(c1)nc(SCC(=O)c1ccc(Br)s1)n2C | i | -11 | x | 2 | 14 | 6 | 5 | 14
COc1ccccc1C(=O)Nc1ccnn1C1CCN(C/C=C/c2ccc(F)cc2)CC1 | i | 8 | x | 10 | 2 | 1 | 0 | 2
Cc1c(C(=O)Nc2ccncc2)sc2nc(-c3ccc(F)cc3)cn12 | i | -15 | -29 | -20 | 10 | 0 | -10 | -36
Cc1cc(C)cc(NC(=O)C(NCCN2CCOCC2)c2ccccc2)c1 (configuration not stated) | i | x | 13 | -6 | -7 | 3 | 5 | -1
COC(=O)C(C(=O)NCC1CCCO1)C1CCCC1 (configuration not stated) | i | -10 | x | -4 | -4 | -6 | -1 | 3
O=C(NCc1cccs1)C1CCCCC1 | i | -9 | -37 | -9 | -16 | -3 | -1 | -7
O=C(Cc1ccccc1)NN1C(=O)/C(=C/c2ccc(C(=O)O)cc2)SC1=S | i | x | -6 | -2 | 1 | x | x | 10
CC1CC(C)CN(C(=O)c2ccc(C#N)cc2)C1 (configuration not stated) | i | x | 25 | -2 | -2 | -7 | 0 | -5
O=C(NCc1nnc(SCC(=O)N2CCOCC2)o1)c1c(F)cccc1F | i | -20 | 23 | -7 | -5 | 1 | -2 | -2
COCCNC(=O)CCc1nc(-c2ccccc2)no1 | i | -20 | x | -1 | -9 | -1 | 0 | 4
CCC(C)(C)NC(=O)C(c1ccc(OC)cc1)N(Cc1ccccc1)C(=O)CCC(=O)Nc1cc(C)on1 (configuration not stated) | i | -8 | 23 | 1 | x | -2 | -4 | -2
COc1ccccc1C1CC(=O)Oc2cc(C)c(Cl)cc21 (configuration not stated) | x | -10 | 27 | x | x | 1 | 3 | x
COc1ccc(NC(=O)Cn2nnc(C(=O)NCc3cccc(OC)c3)c2N)cc1 | i | -15 | x | 3 | -5 | -3 | 1 | -2
Cc1c(O)nc(SC2CC(=O)N(c3cc(Cl)cc(Cl)c3)C2=O)[nH]c1=O (configuration not stated) | i | -8 | -3 | x | 0 | -2 | -1 | x
Cc1ccc(S(=O)(=O)NCCC(=O)NCCOc2ccccc2)cc1 | x | -6 | -4 | x | x | 0 | -2 | x
CCCCC(CCC(=O)NNC(=O)Cc1ccccc1)C(=O)O (configuration not stated) | i | 8 | 1 | 6 | -21 | 8 | 8 | -4
CCOc1ccc(NS(=O)(=O)N(C)C)cc1 | i | -7 | -1 | -4 | -7 | 2 | 3 | 2
O=C(Nc1cccc(S(=O)(=O)N2CCCCCC2)c1)c1ccc(Cl)nc1 | x | 0 | 38 | x | -2 | 3 | -28 | x
O=C(CNC(=O)Cc1cccc2ccccc12)NCc1ccccc1F | i | -17 | 22 | -17 | 5 | 0 | 2 | 8
COC(=O)N1C(=O)[C@@](c2ccc(OC)cc2)(C(C)C)N1C(=O)OC | i | 0 | x | -4 | 10 | -6 | -3 | 4
COc1ccccc1-c1c(C)[nH]n2c(=O)c(Cc3ccccc3)c(C)nc12 | i | x | -4 | 8 | -1 | -9 | -12 | -4
C[C@]12C(=O)N(c3ccccc3)C(=O)N1[C@@H]1c3ccccc3OC[C@@H]1[C@H]2c1ccccc1 | i | -15 | -7 | 0 | 0 | -4 | -1 | 2
COc1ccc(CNC(=O)COC(=O)c2cccs2)cc1 | x | -18 | -10 | -10 | -11 | 0 | 3 | 7
O=C(NC1CCN(Cc2ccccc2)CC1)c1ccc(Oc2cc(Cl)cc(Cl)c2)o1 | i | -11 | 1 | u | 10 | -1 | -9 | -26
Cc1cc(C(=O)CN2C(=O)C3CC=CCC3C2=O)c(C)n1-c1ccccc1 (configuration not stated) | i | -27 | -254 | 6 | -4 | 0 | 0 | 7
Cc1ccc(S(=O)(=O)N2CC3(O)CN(C(=O)OC(C)C)N(C(=O)OC(C)C)CC3(OC(=O)Nc3cccs3)C2)cc1 (configuration not stated) | x | -1 | -53 | x | x | -1 | 0 | x
CS(=O)(=O)c1ccccc1-c1nnc(NC(=O)CCS(=O)(=O)c2ccc(Cl)cc2)o1 | i | -12 | -7 | x | -8 | 5 | 8 | x
CC1=C(C(=O)c2ccccc2)C(c2ccc(OC(F)F)cc2)NC(=S)N1 (configuration not stated) | i | x | -6 | 3 | -12 | 2 | -1 | 8
C/C=C1\COC(C(=O)NCCN2CCCC2)(C(F)(F)F)C=C1C=C1CCCCC1 (configuration not stated) | i | 3 | 32 | x | 34 | 0 | 5 | x
CC(C)=CCN1CCN(CC#Cc2ccccc2)CC1CCO (configuration not stated) | i | -22 | -19 | 2 | 0 | 3 | 1 | 2
Cc1ccccc1C(=O)Nc1ccc(N2CCN(C(=O)c3ccco3)CC2)cc1 | i | -12 | 0 | 1 | -15 | -2 | -5 | -2
CC(Sc1nnc(COc2ccc3ccccc3c2)n1C)C(=O)O (configuration not stated) | i | -13 | -8 | 0 | -12 | 0 | 2 | 13
COc1ccccc1N1CCN(/N=C/c2ccc([N+](=O)[O-])cc2)CC1 | i | 0 | -32 | -5 | 0 | 6 | -1 | 1
O=C(O)CC(c1cccc(C(F)(F)F)c1)N1CCS(=O)(=O)CC1 (configuration not stated) | i | -20 | 11 | -5 | -6 | -1 | 2 | 12
COC(=O)CNc1c(-c2ccccn2)nc2ccc(Br)cn12 | i | -46 | -352 | 80 | 5 | -2 | 7 | 74 | eIF4H FP inh retest=0;PABP FP inh retest=0
COc1ccccc1NS(=O)(=O)c1cc(NC(=O)C2CC2)ccc1N1CCOCC1 | i | x | x | -3 | 10 | x | x | -5
COc1ccc(OC)c(C2CC(=O)Nc3cc(OC)c(OC)c(OC)c32)c1 (configuration not stated) | i | -6 | x | -12 | -4 | 6 | 7 | -6
CN(c1ccccc1)S(=O)(=O)c1cccc(NC(=O)CCN2C(=O)C3CCCCC3C2=O)c1 (configuration not stated) | i | 29 | 32 | 3 | 6 | -2 | -2 | 6
Cc1ccccc1N(C(=O)c1csnn1)C(C(=O)NC1CCCC1)c1ccncc1 (configuration not stated) | i | -20 | -2 | -5 | -11 | 3 | 11 | 0
Cc1cc2cc(CNC(=O)c3ccc(S(=O)(=O)N4CCCCC4)cc3)ccc2[nH]1 | i | -5 | 1 | -4 | -10 | 5 | 5 | -6
O=C(COC(=O)Cc1ccc(Cl)cc1)NCc1ccco1 | x | x | -27 | x | -15 | 0 | 0 | x
COc1cc(CN(CC2CCCO2)C(=O)c2ccco2)cc(OC)c1OC (configuration not stated) | i | 5 | -13 | x | -4 | -3 | -1 | x
O=C(O)C(Cc1ccc(F)cc1)c1ccccc1 (configuration not stated) | i | -28 | -13 | -21 | x | -1 | 0 | -8
CCN(CC)S(=O)(=O)c1ccc(NN=C2CCN(C)CC2)c([N+](=O)[O-])c1 | i | -11 | 4 | 4 | 47 | 4 | 2 | 3
CCOc1ccc(N(Cc2ccc(OC)c(OC)c2)C(=O)c2ccco2)cc1 | i | x | -13 | -6 | 4 | -3 | -5 | 1
CC1CCN(C(=S)c2ccccc2O)CC1 | i | x | -307 | -13 | x | 2 | 4 | 9
O=C(Nc1nccs1)c1nc[nH]c1C(=O)N1CCc2ccccc2C1 | x | -17 | -9 | x | 1 | 5 | 0 | x

2 compounds drawn at random from the list so far:
SMILES | Rce1 inhib | Yeast UUG start | HIV Env fusion | eIF4H FP inh | CSC inhib | MT1-MMP act inh | MT1-MMP act inh RFP | PABP FP inh | others
O=C(CC(=O)Nc1cccc(F)c1)Nc1cccc(F)c1 | i | 49 | -12 | 3 | -6 | -1 | -6 | 20
O=C(O)CC(c1cccc(C(F)(F)F)c1)N1CCS(=O)(=O)CC1 (configuration not stated) | i | -20 | 11 | -5 | -6 | -1 | 2 | 12
